Assay outcomes deposited in PubChem by Johns Hopkins Ion Channel Center.
KCNQ2 block – KCNQ2 potassium channel inhibitors, primary screen, cell-based, CHO-K1, FluxOR thallium flux, B-score (AID 2156) | Potassium voltage-gated channel subfamily KQT member 2 (Rattus norvegicus), O88943 | 20 min; hits give low values; only compounds with negative scores are shown here; some inactives read as strong as hits | B-score at 10 µM | actives 1.1% (n = 310,000);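 active = fluorescence ratio B-score at most minus 3 library SDs, with starting brightness B-score within 2 library SDs, cut at about -5.5 in these data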
Target sequence (O88943 whole entry, looked up): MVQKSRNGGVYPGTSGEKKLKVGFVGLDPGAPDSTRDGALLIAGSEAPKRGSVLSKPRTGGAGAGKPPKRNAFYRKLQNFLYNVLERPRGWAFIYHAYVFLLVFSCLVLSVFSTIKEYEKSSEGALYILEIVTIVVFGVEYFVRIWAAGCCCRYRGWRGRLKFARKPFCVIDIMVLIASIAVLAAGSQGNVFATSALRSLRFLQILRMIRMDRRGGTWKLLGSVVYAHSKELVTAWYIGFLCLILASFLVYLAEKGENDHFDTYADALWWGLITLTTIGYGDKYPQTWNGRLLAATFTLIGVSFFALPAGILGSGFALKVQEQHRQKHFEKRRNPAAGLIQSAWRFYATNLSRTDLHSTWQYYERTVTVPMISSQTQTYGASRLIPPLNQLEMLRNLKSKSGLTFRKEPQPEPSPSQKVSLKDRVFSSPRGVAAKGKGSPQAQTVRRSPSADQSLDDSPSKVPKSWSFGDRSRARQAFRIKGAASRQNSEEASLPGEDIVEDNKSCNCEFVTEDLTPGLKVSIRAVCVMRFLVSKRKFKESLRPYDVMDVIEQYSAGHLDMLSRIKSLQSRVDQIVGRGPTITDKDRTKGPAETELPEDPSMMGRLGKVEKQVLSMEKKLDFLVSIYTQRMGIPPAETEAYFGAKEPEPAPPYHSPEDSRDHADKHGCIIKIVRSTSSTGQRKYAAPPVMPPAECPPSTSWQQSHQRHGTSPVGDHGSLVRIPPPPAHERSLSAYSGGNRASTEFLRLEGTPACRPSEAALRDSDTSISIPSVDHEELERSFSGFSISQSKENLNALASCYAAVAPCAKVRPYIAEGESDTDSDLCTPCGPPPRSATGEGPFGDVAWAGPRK
KCNQ2 block baseline – recorded beside KCNQ2 block, whose call it bears; B-score; measured here: initial fluorescence intensity artifact check;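 brightness before thallium and not channel activity; 0 = typical well and far values either way flag optical interference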
Numbers without * were called inactive; i = inactive. The list is partial. The share of hits here may be higher or lower than overall.

SMILES | KCNQ2 block | KCNQ2 block baseline
BrC(/C=N/Nc1nc(N2CCOCC2)nc(N2CCOCC2)n1)=C/c1ccccc1 | i | -1.5
CC(=O)NS(=O)(=O)c1ccc(NC(=O)C(Sc2ccccc2)c2ccccc2)cc1 (stereo not given) | i | -0.59
Cc1ccc(/C=C2/CCc3c([nH]c4ccccc34)C2=O)cc1 | i | 0.25
O=C(O)c1cccc(NC(CNS(=O)(=O)c2ccc(Cl)cc2)c2ccccc2)c1 (stereo not given) | i | 2.5
Cc1ccccc1N1CCN(C2CCCN(C(=O)c3ccsc3)C2)CC1 (stereo not given) | i | -1.1
COc1cc(O)oc1C=Nc1ccc(Oc2ccccc2)cc1 | i | 0.53
Cc1c(OC(C)C(=O)N[C@@H](Cc2ccccc2)C(=O)O)ccc2c3c(c(=O)oc12)CCCC3 (stereo not given in full) | i | 0.16
C=C(C)CSc1nc2c(cc1C#N)CCC2 | i | -2.4
NNC(=O)c1sc2cc(C(F)(F)F)cnc2c1-c1cccnc1 | i | 0.12
CC1CCCCN1C(=O)CSc1nnc(-c2ccco2)o1 (stereo not given) | i | 1.1
O=C1OC(Nc2ccc3ncccc3c2)c2ccccc21 (stereo not given) | i | 1.5
CCN(CC)S(=O)(=O)c1cc(NC(=O)c2ccc(-n3cncn3)c([N+](=O)[O-])c2)ccc1C | i | -1
COc1ccc(-c2onc(C)c2-c2ccc(C(=O)OC(C)C)o2)c(O)c1 | i | -1.6
O=C1c2cccc3c2N(CCC3)C(=O)C1(F)c1ccccc1 (stereo not given) | i | -0.35
COCCN(C(=O)COC(=O)c1cnc(C)cn1)c1c(N)n(Cc2ccccc2)c(=O)[nH]c1=O | i | -1
CCOC(=O)c1[nH]c2c(c1C)C(=O)CC(c1ccc(OCC)c(OC)c1)C2 (stereo not given) | i | 0.43
Cc1cnc(C(=O)OCc2ccc(Br)cc2F)cn1 | i | 0.84
O=C(N/N=C/c1ccc([N+](=O)[O-])s1)c1ccncc1 | i | -0.26
COc1cccc(CNCc2cccnc2)c1OCc1ccccc1 | i | -0.32
CCc1ccnc(NC(=O)Nc2ccc(OCc3ccccc3)cc2)c1 | i | -1.2
CCOC(=O)Cc1csc(NC(=O)c2ccc(S(=O)(=O)N(CCOC)CCOC)cc2)n1 | i | -1.7
CCCCCSc1nc2c(c(=O)[nH]c(=O)n2C)n1C | i | -1.4
O=C(c1ccco1)N1CCN(C(=O)C2CC(c3ccc(F)cc3)=NO2)CC1 (stereo not given) | i | 0.03
O=C(Cn1c(NCCO)nc2ccccc21)N1CCN(Cc2ccccc2)CC1 | i | 0.56
Cc1ccc2c(c1)COc1c3ccc(C(=O)NCCO)cc3nn1-2 | i | 1.9
CCN(CC)Cc1c(O)ccc2cc(-c3nc4ccccc4n3C)c(=O)oc12 | i | 7.2
Cc1cccc(C)c1NC(=O)COC(=O)c1cccnc1 | i | 1.9
FC(F)(F)C1CCCN(c2nsc3ccccc23)C1 (stereo not given) | i | 1.1
Cc1nnsc1C(=O)Nc1cc(Cl)ccc1Cl | i | -0.6
CCOC(=O)CN(C(=O)CNC(=O)c1cccs1)C(C(=O)NC1CCCC1)c1ccncc1 (stereo not given) | i | -1.2

Continued; the last 6 above are carried over.
SMILES | KCNQ2 block | KCNQ2 block baseline
Cc1ccc2c(c1)COc1c3ccc(C(=O)NCCO)cc3nn1-2 | i | 1.9
CCN(CC)Cc1c(O)ccc2cc(-c3nc4ccccc4n3C)c(=O)oc12 | i | 7.2
Cc1cccc(C)c1NC(=O)COC(=O)c1cccnc1 | i | 1.9
FC(F)(F)C1CCCN(c2nsc3ccccc23)C1 (stereo not given) | i | 1.1
Cc1nnsc1C(=O)Nc1cc(Cl)ccc1Cl | i | -0.6
CCOC(=O)CN(C(=O)CNC(=O)c1cccs1)C(C(=O)NC1CCCC1)c1ccncc1 (stereo not given) | i | -1.2
Cc1nn(S(=O)(=O)c2cccc([N+](=O)[O-])c2)c(C)c1Br | i | 2.2
Cc1ccc2nc(Br)c3c(c2c1)OC(CBr)C3 (stereo not given) | i | 0.59
OC(CNC1Cc2ccccc2C1)c1ccccc1 (stereo not given) | i | 1.1
COc1ccc(C2CC(c3ccc(Br)cc3)=NN2C(=O)CSC2=NCCS2)cc1 (stereo not given) | i | -0.09
Cc1cc(/C=N/n2cnnc2)c(O)c([N+](=O)[O-])c1 | i | 1.2
CC(=O)c1cccc(NC(=S)NNC(=O)c2ccc(C)c([N+](=O)[O-])c2)c1 | i | -1.3
COc1ccc(CCNC(=O)c2n[nH]c3ccccc23)cc1 | i | 1.1
O=C(NC1CC1)C1CCN(C2CCN(C(=O)c3c(F)cccc3Cl)CC2)CC1 | i | -0.16
CCOc1cccc(=O)c2c(C)n(CC(=O)c3ccccc3)c(C)c12 | i | -1.2
Cn1nccc1/C=N\NC(=O)c1ccc(Cl)cc1 | i | 1.6

The list goes on, overlapping the part above by five compounds.
SMILES | KCNQ2 block | KCNQ2 block baseline
CC(=O)c1cccc(NC(=S)NNC(=O)c2ccc(C)c([N+](=O)[O-])c2)c1 | i | -1.3
COc1ccc(CCNC(=O)c2n[nH]c3ccccc23)cc1 | i | 1.1
O=C(NC1CC1)C1CCN(C2CCN(C(=O)c3c(F)cccc3Cl)CC2)CC1 | i | -0.16
CCOc1cccc(=O)c2c(C)n(CC(=O)c3ccccc3)c(C)c12 | i | -1.2
Cn1nccc1/C=N\NC(=O)c1ccc(Cl)cc1 | i | 1.6
O=C(NCc1ccco1)c1cccc(S(=O)(=O)N2CCCCC2)c1 | i | -0.09
O=c1c2cc(Cl)ccc2[nH]c(=S)n1Cc1ccco1 | i | -2.3
O=C(NCCCN1CCCCC1)c1ccc2c(c1)NC(=O)C(N1CCOCC1)S2 (stereo not given) | i | -0.15
COc1ccccc1N(CC(=O)NC1CCCC1)C(=O)c1oc(C(C)(C)C)cc1C | i | -0.45
COC(=O)C1=C(C)N(c2ccccc2)C(=S)NC1c1ccccc1C(F)(F)F (stereo not given) | i | 2.6
CCC(=O)Nc1ccc2nc3c(=O)[nH]c(=S)[nH]c3nc2c1 | i | -0.05
CCOC(=O)c1ccc(NCC(O)COc2ccccc2)cc1 (stereo not given) | i | -1.8
O=C(NN1C(=O)c2ccc3c4c(ccc(c24)C1=O)CC3)c1ccc(Br)cc1 | i | -0.83
CCc1ccc(NC(=O)Cn2c(=O)n(CCCC(=O)NCc3ccco3)c(=O)c3ccccc32)cc1 | i | 1.2
COc1cc(C(=O)Nc2ccc(C(C)=O)cc2)c(Br)c(OC)c1OC | i | -1.3

Random excerpt: 2 entries already listed, in no set order.
SMILES | KCNQ2 block | KCNQ2 block baseline
FC(F)(F)C1CCCN(c2nsc3ccccc23)C1 (stereo not given) | i | 1.1
O=C1c2cccc3c2N(CCC3)C(=O)C1(F)c1ccccc1 (stereo not given) | i | -0.35

Later entries
SMILES | KCNQ2 block | KCNQ2 block baseline
COCCN(CCOC)c1cc(C)c(C#N)c2nc3ccccc3n12 | i | 2.2
COc1cc(-c2cc(=O)c3c(O)c(OC)c(OC)cc3o2)cc(OC)c1O | i | -0.13
CCOc1ccc(CSC(CC(=O)O)C(=O)O)cc1 (stereo not given) | i | 1.1
Cc1cc(Oc2cc(NN3CCCCC3)c([N+](=O)[O-])cc2[N+](=O)[O-])c(C(=O)c2ccccc2)cc1Cl | i | -2.1
Cn1nccc1C(=O)N1CCN(S(=O)(=O)c2ccc(Br)s2)CC1 | i | -0.64
Cc1ccc(C(=O)Nc2ccccc2Sc2ccccc2)cc1 | i | -0.42
O=C(CN1CCN(c2ccccc2F)CC1)c1c[nH]c2ccccc12 | i | 0.98
Cc1cc(C)nc(N2CCN(c3ncnc4c3cnn4Cc3ccc(Cl)cc3Cl)CC2)n1 | i | 0.06
COc1cccc(NC(=O)CN(C)CC(=O)Nc2ccc(Cl)cc2[N+](=O)[O-])c1 | i | -1.4
CN(C)S(=O)(=O)c1cccc(NC(=O)COC(=O)c2cc3ccccc3oc2=O)c1 | i | 0.93
CCOc1ccc(/C(O)=C2\C(=O)C(=O)N(c3cc(C)on3)C2c2ccccc2OC)cc1 (stereo not given) | i | 2.5
CC(C)n1nnnc1C(c1ccc(F)cc1)N1CCN(C2CCCC2)CC1 (stereo not given) | i | -0.08
Cc1ccc2[nH]c(C(=O)N/N=C/c3ccc([N+](=O)[O-])cc3)c(C)c2c1 | i | 0.92
CC(=O)Nc1cc(C(=O)N2CCN(C)CC2)ccc1S(=O)(=O)c1ccc(C)cc1 | i | 3.1
O=C(COC(=O)CCS(=O)(=O)c1ccc(Cl)cc1)NCCc1ccc(Cl)cc1Cl | i | -2
Cc1ccc(C(C)C)c(OCC(O)CN(C)Cc2ccccc2)c1 (stereo not given) | i | -1.1
O=C(C1CC(=O)N(c2ccccc2)C1)N1CCN(c2ccc(F)cc2)CC1 (stereo not given) | i | 0.5
Cc1nn(CCC(=O)NCc2ccc(OC(C)C)cc2)c(=O)c2nn(-c3ccccc3)c(C)c12 | i | 1.1
Fc1ccc(C2CCCN2Cc2nc(CC3CC3)no2)cc1 (stereo not given) | i | 1.7
CC(=O)N1CCN(C(=S)NCCc2ccccc2)CC1 | i | 0.62
COC(=O)Nc1nc(Sc2ncc(C(F)(F)F)cc2Cl)n[nH]1 | i | -1.2
O=C(c1cc2ccccc2oc1=O)N(Cc1ccccc1)Cc1ccc2c(c1)OCO2 | i | 0.37
O=C(CSc1c(Cl)cccc1Cl)NC1CCCc2ccccc21 (stereo not given) | i | -1.1
O=[N+]([O-])c1ccc(Cl)c(-c2ccc(/C=N/c3c(-c4ccco4)nc4ccccn34)o2)c1 | i | 1.1
CC(Oc1ccc(-c2ccccc2)c(F)c1)c1ccn(S(=O)(=O)c2cccc3ccccc23)n1 (stereo not given) | i | 0.84
CN1CCN(CCC(=O)Nc2ccccc2)CC1 | i | -1.1
N#Cc1ccsc1NC(=O)COC(=O)c1ccc(NC(N)=O)cc1 | i | 0.72
Cc1occc1-c1nnc(SCCCC(=O)c2ccc(F)cc2)n1C | i | 0.19
CCOc1c(C)cnc2c1c(=O)n(Cc1ccccc1Cl)c(=O)n2C | i | 2.5
Cc1cc(C)nc(SCc2nnc(SCC(=O)Nc3ncc(C)s3)n2Cc2ccco2)n1 | i | -1.4
C[C@H](OC(=O)N1CCN(C(c2ccccc2)c2ccccc2)CC1)[C@@H]1O[C@@]2(C)CCC[C@H]1O2 | i | -0.12
COC(=O)[C@@]12CCCCN1[C@H](c1ccc(-c3ccccc3)cc1)[C@H]1C(=O)N(C)C(=O)[C@H]12 | i | 1.9
Cc1ccc(C(=O)N2CCN(c3ncc(C(F)(F)F)cc3Cl)CC2)s1 | i | -1.3
CCC(=O)Nc1cc2[nH]c(=O)cc(C)c2cc1C | i | 0.73
Cc1[nH]nc(SCC(=O)N2CCCC2)c1[N+](=O)[O-] | i | -1.8
COc1ccc(S(=O)(=O)N2CCCC(C(=O)N3CCOCC3)C2)cc1Cl (stereo not given) | -5.6* | -1.1*
COCC(C)NS(=O)(=O)c1ccc(C(=O)NC(Cc2ccccc2)c2ccccc2)cc1 (stereo not given) | -7.8* | -2.2*
COC(=O)C1=C(C)NC2=C(C(=O)c3ccccc32)C1c1ccc(-c2ccc(C(=O)O)cc2)o1 (stereo not given) | i | -0.86
CCn1cc(S(=O)(=O)CC(=O)Nc2ccc3c(c2)OCO3)c2ccccc21 | i | -0.39
COc1cccc(N(C(=O)Cn2nnc(-c3ccc(C)o3)n2)C(C(=O)NC2CCCC2)c2ccncc2)c1 (stereo not given) | i | 1.3
CCNC(=O)CC1SC(=Nc2ccc(C)cc2)N(CC)C1=O (stereo not given) | i | 0.18
COc1cccc(OCc2cc(C(=O)N(C)CCOc3ccc(C)cc3)no2)c1 | i | 0.79
CCN(CC)S(=O)(=O)c1cc(NS(=O)(=O)c2ccc(Cl)c(C(=O)O)c2)ccc1C | i | -1.3
NC(Cc1c[nH]c2ccc(OCc3ccccc3)cc12)C(=O)O (stereo not given) | i | -0.6
Cc1cccc(OCCCC(=O)O)c1 | i | -1.1
CCOC(=O)C1CCCN(CC(=O)Nc2cc(C)cc(C)c2)C1 (stereo not given) | i | 0.62
O=C1CCCC(c2ccccc2)N1 (stereo not given) | i | -3
COCCN(C(=O)CCC(=O)Nc1cccnc1)C(C(=O)NC1CCCCC1)c1ccccc1 (stereo not given) | i | -0.06
COc1ccc(CNC(=O)/C=C/c2cc3c(cc2Br)OCO3)cc1 | i | -0.21
Cc1occc1-c1nnc(SCC(=O)Nc2ccc(F)cc2)n1C | i | 0.92
(more compounds)
SMILES | KCNQ2 block | KCNQ2 block baseline
O=C(CN1C(=O)c2ccccc2S1(=O)=O)N1CCCCC1 | i | -0.05
COc1ccc(N(C(C)C(=O)N(C)Cc2ccccc2)S(C)(=O)=O)cc1 (stereo not given) | i | 0.23
CCCn1c(CNC(=O)c2cccs2)nc2ccccc21 | i | -1.7
CCN(CC(=O)Nc1c(F)cccc1F)C(=O)c1cc(-c2cccs2)nn1-c1ccccc1 | i | 0.68
Cc1cccc2cc(COC(=O)c3cccnc3)c(=O)[nH]c12 | i | -1.3
O=C(CCCn1cc([N+](=O)[O-])cn1)N1CCCCC1 | i | 1.7
O=C(NCCN1CCCC1)C1(S(=O)(=O)c2ccc(Cl)cc2)CC1 | i | 0.4
O=C(c1ccc(F)cc1)N1CCN(Cc2ccccc2Br)CC1 | i | -1.2
CCOC(=O)c1cc2c(=O)n3ccccc3nc2n(CC2CCCO2)c1=NC(=O)/C=C/c1ccccc1 (stereo not given) | i | 2.9
Cn1c(SCC(=O)N/N=C/C=C/c2ccccc2[N+](=O)[O-])nc2ccccc21 | i | -0.47
COc1cccc(NC(=O)Cc2nnc(SCC(=O)NC3=NCCS3)n2C)c1 | i | 0.44
Cc1nn(-c2ccccc2)c(Cl)c1/C=N/Nc1nc2ccccc2n1C | i | 2.1

Some of the entries so far, with the structure last:
KCNQ2 block	KCNQ2 block baseline	SMILES
i	0.4	O=C(NCCN1CCCC1)C1(S(=O)(=O)c2ccc(Cl)cc2)CC1
i	-1.2	O=C(c1ccc(F)cc1)N1CCN(Cc2ccccc2Br)CC1
